HSD17B inhib: qHTS Assay for Inhibitors of HSD17B4, hydroxysteroid (17-beta) dehydrogenase 4; 3-hydroxyacyl-CoA dehydrogenase type-2 (Homo sapiens), Q99714; recombinant HSD17B10, NADH fluorescence kinetic; many of its hits are not listed in these tables; Potency, µM (highest dose often 57.1 µM), for inactives: at the highest dose activity change, negative = inhibition, usual class: inhibitors; hit rate 7.6% among 75,000; AID 893, 2007; active = well fitted inhibition curve with a large enough effect; inconclusive = small, poorly fitted or top-dose-only effect; inactive = no such curve, though single readings can be large or run the other way;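 note: the protocol describes HADH2 (HSD17B10) and not the HSD17B4 of the title; nearly all actives have a fitted effect of over 70% in size; most hits overshoot -100% by far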
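Enzyme plus compound, 15 min room temperature; substrate mix added (NAD+ 1 mM, beta-hydroxybutyryl-CoA 90 uM final); plates read kinetically for NADH fluorescence. HADH2 was His-tagged, E. coli-derived, 20 nM.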
An asterisk follows results filed as active; & = joins results of further samples; [ ] = remark or other dose. % is set by controls: 0 for no effect and ±100 for the full control effect; potency is the fitted concentration of half-maximal effect. A portion of the library. The share of hits here may be higher or lower than overall.

`Cc1ccc(NC(=O)CS(=O)CC(=O)Nc2cccc(C)c2C)cc1F` (stereo not drawn) gave HSD17B inhib 9.1%.
Screening c1cc2nnnn2nc1N1CCCCC1 returned HSD17B inhib -5.1%.
O=S(=O)(c1cccc(-c2nc3ccccc3s2)c1)N1CCCC1 was read as HSD17B inhib inconclusive.
For Cc1ccc(-c2noc(CCC(=O)N(C)c3ccccc3C)n2)cc1 the results were HSD17B inhib -0.6%.
Brc1ccc(CSc2nnc(Cc3c[nH]c4ccccc34)o2)cc1 was read as HSD17B inhib 0.0%.
Screening O=C(Nc1nc(-c2ccccn2)cs1)C1CC1 returned HSD17B inhib 0.6%.
For Cc1cc(=O)oc(C)c1C(=O)OCC(=O)c1ccccc1 the results were HSD17B inhib 11.3%.
For N=C(N)SCc1cccc(-c2nc3ccccc3c(=O)o2)c1 the results were HSD17B inhib 9.0%[11.4 µM].
Cc1ccnc(SCC(=O)N2CCN(c3cccc(Cl)c3)CC2)n1 was read as HSD17B inhib -2.5%.
`CCC(Sc1nnc(C)s1)C(=O)Nc1nccs1` (stereo not drawn) gave HSD17B inhib -18.5%.
COC(=O)C1CCN(C(=O)C(C)Oc2ccc(Cl)cc2Cl)CC1 (stereo not drawn) was read as HSD17B inhib 4.9%.
For Cc1cc(-c2c(C)n([O-])c(C)c(C)[n+]2=O)ccc1F the results were HSD17B inhib 5.8%.
COC(CCN(C)C)(c1ccccc1)c1ccccc1 was read as HSD17B inhib 12.6%.
`Cc1ccc2[nH]c3c(NCc4ccco4)ncnc3c2c1` gave HSD17B inhib 25.1µM*.
Screening COc1ccc(C2CCCN2C(=O)c2cccs2)cc1 (stereo not drawn) returned HSD17B inhib 4.3%.
O=C(Oc1cccc2cccnc12)c1cccc(-n2cnnn2)c1 was read as HSD17B inhib -5.0%.
`CCN(CC(F)(F)C(F)F)S(=O)(=O)c1ccc(NC(=O)OC)cc1` gave HSD17B inhib -2.9%.
`OCCN1CCN(C(=S)c2ccc(Cl)c(Cl)c2)CC1` gave HSD17B inhib 25.1µM*.
`O=C(O)C(CCCCN1C(=O)c2ccccc2C1=O)N1C(=O)c2ccccc2C1=O` (stereo not drawn) gave HSD17B inhib -0.4%.
COc1ccc(OC)c(NC(=O)CCN2CCN(Cc3ccccc3)CC2)c1 was read as HSD17B inhib -5.0%.
`Cc1cc(NC(=O)c2ccc(Br)c(S(=O)(=O)N3CCCC3)c2)no1` gave HSD17B inhib 4.8%.
For Cc1noc(NS(=O)(=O)c2ccc(N3CC(O)=C(c4ccccc4)C3=N)cc2)c1C the results were HSD17B inhib 5.5%.
For CC(C)C(C(=O)C=[N+]=[N-])N1C(=O)c2ccccc2C1=O (stereo not drawn) the results were HSD17B inhib -2.5%.
Screening COc1ccc(C2=NOC(C(=O)Nc3cc(Br)ccc3O)C2)cc1OC (stereo not drawn) returned HSD17B inhib 9.2%.
For O=C(Nc1ccon1)c1csc2ccccc12 the results were HSD17B inhib -0.1%.
For CN1CCN(C(=O)c2ccc(CS(=O)(=O)c3c(Cl)cccc3Cl)o2)CC1 the results were HSD17B inhib 2.3%.
`Cn1c(CNC(=O)Nc2ccccc2Cl)nnc1SCc1ccccc1` gave HSD17B inhib 3.5%.
Screening CCOC(=O)c1ccc(NCc2nc3ccccc3[nH]2)cc1 returned HSD17B inhib -2.3%.
For O=S(=O)(c1cccs1)N1CCN(C/C=C/c2ccccc2)CC1 the results were HSD17B inhib -8.1%.
`CCOC(=O)c1csc(NC(=O)CSc2nnc(C3CC3)n2C)n1` gave HSD17B inhib 8.4%.
Screening CC1Cc2ccccc2N1C(=O)CSc1nnc(CSc2ncccn2)n1C (stereo not drawn) returned HSD17B inhib 2.9%.
`CCOC(=O)c1cccc(NC(=O)Cn2c(CC(=O)NC)nc3ccccc32)c1` gave HSD17B inhib -11.9%.
`CCCCNC(=O)C1CCN(S(=O)(=O)c2cnc[nH]2)CC1` gave HSD17B inhib 17.4%.
Cc1noc(C)c1-c1nccc(NC2CC2)n1 was read as HSD17B inhib -3.4%.
`CC(=O)c1ccc(N(C)C)c2c(N(C)C)cccc12` gave HSD17B inhib -2.1%.
Screening CC(C)C(=O)C(C)(C)CCc1ccccn1 returned HSD17B inhib 8.1%[11.4 µM].
For CCN(CC)CC(=O)Nc1ccc2c(c1)Nc1ccccc1CC2 the results were HSD17B inhib -7.7%.
For CCOC(=O)C1CCCN(C(=O)c2ccc3c(=O)n(CCOC)c(=S)[nH]c3c2)C1 (stereo not drawn) the results were HSD17B inhib 4.3%.
For Cc1[nH]c(=O)[nH]c(=O)c1S(=O)(=O)N1CCCC(C(=O)N2CCC(Cc3ccccc3)CC2)C1 (stereo not drawn) the results were HSD17B inhib 4.4%.
CC(C)n1c(C(=O)OCC(=O)NCc2ccc3c(c2)OCO3)cc2occc21 was read as HSD17B inhib -13.2%.
O=C(O)C1=CCNCC1 was read as HSD17B inhib 1.3%&11.0%&-2.4%.
Screening N#Cc1c(-c2ccco2)nc(SCc2ccc(F)cc2)[nH]c1=O returned HSD17B inhib 25.1µM*.
Screening CCOC(=O)N1CCC(NC(=O)c2cc(S(=O)(=O)N3CCOCC3)ccc2F)CC1 returned HSD17B inhib -2.9%.
Cn1c(SCc2nc3ccccc3n2CCO)nc2ccccc21 was read as HSD17B inhib 2.3%.
`COc1ccc(NC(=O)CN2CCC3(O)CCCCC3C2c2ccccc2OC)cc1` (stereo not drawn) gave HSD17B inhib 10.1%.
Screening CCCN1C(=O)c2ccccc2NC1c1ccc(OC)cc1O (stereo not drawn) returned HSD17B inhib 31.6µM*.
For N#CC1=C2SCN(c3ccc(F)cc3)CN2C(=O)CC1c1cccc(F)c1 (stereo not drawn) the results were HSD17B inhib inconclusive.
`CCOc1ccc2cc(C#N)c(SCC(=O)NC(C)CC)nc2c1` (stereo not drawn) gave HSD17B inhib inconclusive.
For CC(C)(C)c1cnnn1-c1ccc(NC(=O)c2ccc(Br)o2)cc1 the results were HSD17B inhib -10.6%.
Fc1ccccc1CSc1nnc(-c2cnccn2)n1Cc1ccco1 was read as HSD17B inhib 4.9%.
O=c1c2ccccc2[nH]c(=S)n1CCCN1CCN(C2CCCCC2)CC1 was read as HSD17B inhib -1.6%.
Screening COc1ccc(S(=O)(=O)NC2CC3CCC2C3)cc1Cl (stereo not drawn) returned HSD17B inhib -2.8%.
`O=P(O)(CN1CCCCC1)C1CCCCC1O` (stereo not drawn) gave HSD17B inhib 6.8%.
`C=C1C([C@@]2(C)C(OC(C)=O)CC(=O)O[C@@](C)(COC(C)=O)C2CC(=O)OC)C(OC=O)C(OC(=O)C(O)C(C)CC)[C@]2(C)C(c3ccoc3)CC(=O)C12O` (stereo partly drawn) gave HSD17B inhib 1.5%.
For CSCCC1NC2(C(=O)Nc3c(Cl)cccc32)[C@@H]2C(=O)N(C3CCCC3)C(=O)[C@H]12 (stereo partly drawn) the results were HSD17B inhib inconclusive.
For CCCc1n[nH]c(=O)[nH]1 the results were HSD17B inhib 13.2%.
Screening O=S(=O)(c1ccc(OCC(O)CN2CCN(c3ccccc3)CC2)cc1)N1CCOCC1 (stereo not drawn) returned HSD17B inhib -3.6%.
`CCOC(=O)c1ccc(NC(=O)Cn2nnc(-c3ccccc3)n2)cc1` gave HSD17B inhib 1.4%.
Screening CS(=O)(=O)N(CC(=O)NC1CC1)c1cccc(F)c1 returned HSD17B inhib 4.9%.
Screening N#Cc1cccc(-c2nccc(NCc3ccccc3)n2)c1 returned HSD17B inhib 1.1%.
O=C(Cn1cnc2c(nnn2Cc2ccccc2)c1=O)N1CCN(c2ccccc2)CC1 was read as HSD17B inhib -4.8%.
`CCOC(=O)N1CCN(Cc2cn3ccccc3n2)CC1` gave HSD17B inhib -2.2%.
CCn1c(=O)n(CC)c2cc(S(=O)(=O)N3CCC(c4ccccc4)CC3)ccc21 was read as HSD17B inhib 0.0%.
For COc1ccc(C(C)(C)C)cc1NC(=O)COC(=O)c1cnc(C)cn1 the results were HSD17B inhib 5.0%.
`O=C(C[C@@H]1C=Cc2ccccc2N1C(=O)c1ccccc1)c1ccccc1` gave HSD17B inhib -6.8%[11.4 µM].
Screening O=C(c1cnccn1)N1CCC2(CCCN(Cc3nccs3)C2)CC1 returned HSD17B inhib 3.7%.
Cn1c(=O)n(Cc2ccc(F)cc2)c(=O)c2c1nc1n2CCCN1C1CCCCC1 was read as HSD17B inhib 4.5%.
For O=C1C2CCCN2C(c2ccc(F)cc2)N1c1ccc(Cl)cc1 (stereo not drawn) the results were HSD17B inhib -19.1%.
CCOC(=O)CCc1c(C)nc2cc(-c3ccccc3OC)[nH]n2c1=O was read as HSD17B inhib 31.6µM*.
OCCCc1nc2ccccc2n1CCOc1ccccc1 was read as HSD17B inhib 7.1%.
`CCOc1ccc(Cn2nnc(C(=O)Nc3cc(C)cc(C)c3)c2N)cc1` gave HSD17B inhib -4.5%.
`O=C(N/N=C1/C[C@@H](O)[C@@H](O)[C@@H]2[C@@H]3C(=O)N(Cc4ccc5c(c4)OCO5)C(=O)[C@H]3CC[C@H]12)OCc1ccccc1` gave HSD17B inhib -6.5%[11.4 µM].
Screening c1ccc(-n2c(-c3ccncc3)nnc2-c2cccs2)cc1 returned HSD17B inhib 31.6µM*.
CCOC(=O)c1oc2ccccc2c1NC(=O)c1ccc(S(=O)(=O)N(C)C)cc1 was read as HSD17B inhib 31.6µM*.
`CCOC(=O)C1CCCN(c2nc3ccccc3nc2C(C#N)C(=O)OCC)C1` (stereo not drawn) gave HSD17B inhib 8.1%.
CC1C(=O)C(C)C(c2ccc3c(c2)OCO3)NC1c1ccc2c(c1)OCO2 (stereo not drawn) was read as HSD17B inhib 2.7%.
Screening COc1cc(OC)cc(-c2nc3nc(C)c(CCC(=O)NCc4ccco4)c(C)n3n2)c1 returned HSD17B inhib 4.8%.
Cc1ccc(C2CC(c3cccc(Cl)c3)n3nc(N)nc3N2)cc1 (stereo not drawn) was read as HSD17B inhib -2.3%.
`CC1CCN(C(c2ccccc2)c2nnnn2C(C)(C)C)CC1` (stereo not drawn) gave HSD17B inhib 2.5%.
For O=C(NC1CCS(=O)(=O)C1)c1cnccn1 (stereo not drawn) the results were HSD17B inhib -3.2%.
N#C/C=C\Oc1ccc(Cl)cc1N was read as HSD17B inhib -10.4%.
For c1coc(-c2nc3c4c5c(sc4ncn3n2)CCCC5)c1 the results were HSD17B inhib inconclusive.
O=C(COc1cccc(C(F)(F)F)c1)Nc1ccc(S(=O)(=O)N2CCCC2)cc1 was read as HSD17B inhib -4.7%.
Screening O=C(CS(=O)(=O)Cc1ccccc1)N1CCN(C(=O)c2ccco2)CC1 returned HSD17B inhib 5.4%.
For O=C(NCCN1CCOCC1)c1ccc(Cc2nc3ccccc3[nH]2)cc1 the results were HSD17B inhib 1.2%.
`Cc1nnc(SCCc2ccccc2)[nH]c1=O` gave HSD17B inhib -13.8%.
For CN(C)c1cccc(C(=O)n2cc(C(=O)c3cc(F)ccc3O)cn2)c1 the results were HSD17B inhib inconclusive.
O=C(OCC(=O)N1CCc2ccccc21)c1ccccc1 was read as HSD17B inhib 1.9%.
For CSc1ccccc1NC(=O)CN(c1cc(C)cc(C)c1)S(C)(=O)=O the results were HSD17B inhib -1.7%.
CCOC(=O)N1CCN(C(=O)C(NC(=O)C2CCC(C)CC2)C(C)C)CC1 (stereo not drawn) was read as HSD17B inhib -8.4%.
`O=C(O)C[n+]1ccccc1` gave HSD17B inhib 1.7%[11.4 µM].
CCc1nc(SCC(=O)Nc2ccccc2C(=O)OC)n[nH]1 was read as HSD17B inhib -5.3%.
`Cc1cc(NS(=O)(=O)Cc2ccccc2)cc(C)c1OCC(=O)N1CCOCC1` gave HSD17B inhib 2.3%.
For Cn1c(SCC(=O)O)nnc1C1CCCCC1 the results were HSD17B inhib 7.3%.
`CCCS(=O)(=O)N1CCCC(C(=O)N2CCN(c3ccccc3)CC2)C1` (stereo not drawn) gave HSD17B inhib 7.1%.
For COc1cc(OC)cc(C(=O)NC2CCN(Cc3nnnn3Cc3cccs3)CC2)c1 the results were HSD17B inhib 14.4%.
Screening CC(=O)Nc1ccc(NC(=O)CSc2nnc(C3CC3)n2C)cc1 returned HSD17B inhib -2.1%.
For Cc1ccc(CCn2c3c(c4ccccc42)CN(C)CC3)cn1 the results were HSD17B inhib -4.4%.
For FC(F)(F)c1ccc(C2[C@H]3CN(CC4CCCCC4)[C@H](c4ccccc4)C34CC2(c2ccccc2)C4)cc1 (stereo partly drawn) the results were HSD17B inhib 18.6%.
`Clc1ccc2c(N3CCCC3)ccnc2c1` gave HSD17B inhib -14.0%.

Compound activity: PubChem BioAssay, National Center for Advancing Translational Sciences (NCATS)
